Assay outcomes as filed in PubChem.
B2AR ag = activates human beta-2 adrenergic receptor causing internalization; AID 504454; Am2.2-beta2AR cells, FAP receptor internalization, flow cytometry; reference of the scale not given here; response, % (concentration not given with the values); actives 0.43% (n = 340,000);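 active = response above a set limit, near 3 SD of response in nonfluorescent compounds, cut at about 42% in these data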;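 also: stock transfer was 100 nL into about 11 µL; a reference agonist was the positive control; negative values mostly stem from fluorescent compounds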
Target sequence (P07550 whole entry, looked up): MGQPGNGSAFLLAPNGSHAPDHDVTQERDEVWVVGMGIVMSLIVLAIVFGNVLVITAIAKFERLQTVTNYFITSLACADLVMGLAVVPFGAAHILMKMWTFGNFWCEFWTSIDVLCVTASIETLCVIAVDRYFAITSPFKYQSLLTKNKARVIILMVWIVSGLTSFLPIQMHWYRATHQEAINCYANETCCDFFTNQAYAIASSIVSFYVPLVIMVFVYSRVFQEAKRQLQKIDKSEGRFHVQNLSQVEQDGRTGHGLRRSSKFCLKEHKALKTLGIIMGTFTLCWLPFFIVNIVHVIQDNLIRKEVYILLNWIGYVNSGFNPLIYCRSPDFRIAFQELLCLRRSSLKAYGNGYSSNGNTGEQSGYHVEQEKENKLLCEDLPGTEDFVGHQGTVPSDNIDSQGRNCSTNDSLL
RanGTP-Impb inh = inhibitors of RanGTP-importin-beta interaction, primary screen, biochemical, FRET, CFP-Ran, YFP-importin-beta, homogeneous; cell-free CFP-Ran/YFP-importin-beta FRET ratio; inhibition, % (concentration not given with the values); actives 1.1% (n = 300,000);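 active = most replicates above 15%; inconclusive = exactly half above 15%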;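 also: 0% = DMSO wells and 100% = Ran loaded with GDP instead of GTP; wells of about 40 µL received 100 nL stock; the first replicate is given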
Vif TR-FRET = inhibitors of Vif binding to APOBEC3G peptide, primary screen, biochemical, TR-FRET, GST-Vif 1-94, biotin-A3G peptide, dose response retest (AID 1117319). TR-FRET GST-Vif / biotin-A3G peptide binding; higher % means a stronger effect; test concentration not given here; strong numbers were not always called active. inhibition, %; hits with a dose series show IC50 in µM. actives 0.57% (n = 260,000);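 active = above the screen mean plus three standard deviations and confirmed in dose response; inconclusive = results disagree or hit not tested in dose response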;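 also: Vif residues 1-94 fused to GST binding biotinylated APOBEC3G peptide 110-148; 0% = full assay without inhibitor and 100% = GST in place of GST-Vif; retest series ran down from 100 µM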
Calb FLC = C. albicans growth modulation with fluconazole; C. albicans CaCi-2 (fluconazole-resistant clinical isolate) + fluconazole, Alamar Blue growth, 48 h; growth inhibition, % (test concentration not listed); actives 0.57% (n = 300,000); AID 1979;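 active = most replicates above 75%; inconclusive = exactly half above 75%; inactive = most below 75%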;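 also: all wells also contain fluconazole at 8 µg/ml as a sub-toxic cotreatment; 0% = median of DMSO wells and 100% = median of geldanamycin control wells; wells of about 8 µL received 7.5 nL stock; the first replicate is given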
LANA-H2A inh = blocks KSHV LANA binding to histone H2A/H2B; Q9QR71; cell-free LANA-H2A/H2B peptide, fluorescence polarization; inhibition, % (test concentration not listed); actives 0.6% (n = 320,000); in the data active = inhibition mostly above about 10%, no sharp cut-off; inactive = mostly below about 6.7%;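 also: stock transfer was 7.5 nL into about 10 µL; 0% = median of vehicle wells and 100% = median of positive control wells; one replicate is shown; the record names a cut of 25% in any replicate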
ALR H2O2 inh = human ALR oxidase inhibition via reduced H2O2; P55789; actives 3.8% (n = 290,000); purified ALR, DTT oxidation, H2O2 HRP-luminol luminescence; inhibition, % (no concentration beside the values);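 active = mean and each replicate at 75% or more; inconclusive = only one of the two met; inactive = neither met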;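 also: stock transfer was 7.5 nL into about 7.5 µL; 0% = neutral wells and 100% = wells with inactivated enzyme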
Target sequence (P55789 whole entry, looked up): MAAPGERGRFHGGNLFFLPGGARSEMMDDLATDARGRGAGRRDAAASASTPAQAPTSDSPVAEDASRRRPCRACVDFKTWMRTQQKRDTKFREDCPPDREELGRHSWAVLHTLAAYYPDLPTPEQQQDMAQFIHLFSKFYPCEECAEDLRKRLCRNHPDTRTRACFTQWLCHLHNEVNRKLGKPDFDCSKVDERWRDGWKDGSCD
HNF4A DNA FP = change in binding of human HNF4 alpha to DNA. P41235. activity change, % at 10 µM. actives 0.3% (n = 360,000). HNF4a-FITC DNA binding, fluorescence polarization, 1 h; in the data active = activity change above about 30%, passing the limit was not always enough;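 also: controls were the assay level and a saturating level of protein; the project sought stronger binding though the title names inhibitors; some compounds called inactive have numbers as strong as hits; positive values seem to mean higher polarization but the record does not say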
Target sequence (P41235 whole entry, looked up): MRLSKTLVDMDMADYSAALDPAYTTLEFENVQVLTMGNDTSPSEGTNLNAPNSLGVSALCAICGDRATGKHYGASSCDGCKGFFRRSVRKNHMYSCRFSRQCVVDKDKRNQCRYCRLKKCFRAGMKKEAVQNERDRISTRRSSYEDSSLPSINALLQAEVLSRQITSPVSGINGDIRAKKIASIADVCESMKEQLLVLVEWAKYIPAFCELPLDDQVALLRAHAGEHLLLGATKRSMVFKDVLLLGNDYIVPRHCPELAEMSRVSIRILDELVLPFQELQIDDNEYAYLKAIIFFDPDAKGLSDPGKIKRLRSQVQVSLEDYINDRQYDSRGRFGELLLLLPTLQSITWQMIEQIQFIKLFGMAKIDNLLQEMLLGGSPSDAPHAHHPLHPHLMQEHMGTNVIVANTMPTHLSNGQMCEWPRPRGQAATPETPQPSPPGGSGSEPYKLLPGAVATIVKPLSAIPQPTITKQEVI
* = called active by the depositor; u = inconclusive; x = not tested or not shown.

SMILES	B2AR ag	RanGTP-Impb inh	Vif TR-FRET	Calb FLC	LANA-H2A inh	ALR H2O2 inh	HNF4A DNA FP
COc1ccc(C(C(=O)NC2CCCC2)N(CCCO)C(=O)c2snc(C(N)=O)c2N)cc1 (configuration not stated)	-9.0	-2.6	x	3.7	-5.3	1.0	4.4
CCOc1ccccc1NC(=O)COC(=O)c1ccc(S(=O)(=O)N2CCCC2)cc1	-2.9	x	-12.0%	x	x	x	4.4
CN(C)S(=O)(=O)c1ccc(C(=O)Nc2ccc(Cl)cc2)cc1	8.8	-10.0	-2.0%	-0.5	8.9	-12.4	-2.8
CC(=O)c1ccc(N=C2C(=O)Nc3ccccc32)cc1	-3.6	-2.8	12.3%	-11.7	-0.7	-2.1	-0.6
COC(=O)CSc1[nH]c2ccccc2c1[N+](=O)[O-]	-3.5	-2.5	x	10.6	5.6	99.7*	0.4
CN(C)S(=O)(=O)N(CC(=O)N1CCN(c2ccccc2)CC1)c1ccccc1	-0.8	-7.4	11.9%	4.4	1.7	24.8	-2.1
O=C(c1ccc2c(=O)n(Cc3ccc4c(c3)OCO4)c(=S)[nH]c2c1)N1CCCCC1	9.9	5.0	7.3%	-17.6	-5.7	5.9	5.9
CC(NC(=O)COC(=O)c1ccc2c(=O)n3c(nc2c1)CCCCC3)c1ccccc1 (configuration not stated)	-4.2	x	-8.0%	x	6.9	-7.4	2.9
COc1cc(C(=O)Nc2ccc3nc(N4CCN(C)CC4)cc(C)c3c2)cc(OC)c1OC	7.4	u	2.5%	4.4	0.1	1.0	2.7
Cc1ccc(-n2nc(C)c(C(C)(O)C(F)(F)F)c2N)cc1 (configuration not stated)	-3.1	1.5	27.3%	-2.6	2.8	-1.7	0.1
COc1cccc(C(=O)COc2ccc3ccc(=O)oc3c2)c1	-7.7	-3.2	-0.1%	0.2	-3.4	x	-0.8
COc1ccc(CCN2C(=O)CC(NCCc3ccc(S(N)(=O)=O)cc3)C2=O)cc1OC (configuration not stated)	2.1	-1.6	19.0%	27.1	-0.6	-6.3	-0.1
COc1ccc(C2(C)NC(=O)N(CC(=O)NC(C)c3ccc(CC(C)C)cc3)C2=O)cc1 (configuration not stated)	-4.9	5.5	-4.3%	-5.0	-6.3	x	5.1
COc1cc(-c2noc(C)c2C(=O)N[C@@H](CO)Cc2ccccc2)cc(OC)c1OC	2.8	x	-3.2%	x	x	x	-1.6
CCOC(=O)[C@@H]1[C@H]2COc3ccc(Br)cc3[C@H]2N2C(=O)N(c3cccc(F)c3)C(=O)[C@]12C	12.1	-2.4	x	26.5	-1.9	-7.7	-1.2
CC(=O)C1=C(O)C(=O)N(Cc2cccnc2)C1c1ccc(Cl)cc1 (configuration not stated)	1.2	3.6	15.0%	-5.7	-2.2	-2.7	-1.2
CCC(CC)C(=O)NCc1ccccc1OC	1.9	2.7	-4.6%	-14.3	4.3	x	1.5
COc1ccc(C(=O)/C(=C/c2cccs2)c2nc3ccccc3o2)cc1	8.2	2.1	4.8%	-20.1	3.4	-1.8	0.1
CCCc1nnc(NC(=O)Cn2c(=O)oc3cc(Br)ccc32)s1	-11.1	x	0.7%	x	2.2	-10.3	-1.5
O=C1N/C(=C\c2ccc(O)cc2)C(=O)c2ccccc21	17.5	-3.1	-1.2%	19.7	-1.1	-36.1	1.9
CCCC(=O)Nc1c(C(=O)OCC)oc2ccccc12	6.7	6.6	-14.7%	2.4	0.2	5.3	-1.3
C/C(CCc1ccc2c(c1)OCO2)=N\N=C(/N)SC1CC(=O)N(c2ccc(Cl)cc2)C1=O (configuration not stated)	0.3	3.6	-2.0%	-5.0	7.5	x	4.2
CN1c2ccsc2C(O)=C(C(=O)Nc2ccccc2)S1(=O)=O	2.7	-3.8	-0.6%	u	-0.2	-0.8	3.9
COc1ccccc1/C=N/NC(=O)CN(C1=NS(=O)(=O)c2ccccc21)c1ccccc1	11.2	5.2	x	2.1	-0.2	-27.0	-0.3
CCCN(CC(=O)Nc1ccccc1C)C(=O)COc1c(Cl)cccc1Cl	-0.7	u	x	-9.2	-7.6	-11.9	2.9
COCCn1c(Cc2ccccc2)nnc1SCC(=O)Nc1cc(C)on1	4.6	5.2	-6.7%	-6.0	-4.5	-3.7	-5.1
Cn1c(SCC(=O)Nc2nccs2)nnc1-c1ccncc1	-11.3	3.0	-2.0%	-4.3	2.6	-3.8	1.9
Cc1cc(C(=O)COC(=O)c2ccc(CO)cc2)c(C)n1CC1COc2ccccc2O1 (configuration not stated)	4.0	-1.7	x	4.7	8.9	-32.3	5.7
Cc1ccc(-c2cc(C(=O)N3CCCc4ccccc43)c3ccccc3n2)cc1	5.5	-2.6	4.5%	5.3	0.3	-30.9	-0.1
Cn1c(=O)n(C)c2cc(S(=O)(=O)NCc3ccco3)ccc21	-2.9	-1.7	8.1%	-0.8	-2.1	-1.9	-0.3
COc1ccc2nc(NC(=O)CSc3nc(C)cc(C)n3)sc2c1	-5.4	-0.1	-0.4%	12.1	4.5	x	2.9
Cn1c(SCC(=O)N/N=C/c2cccs2)nc2ccccc21	-4.8	1.7	12.3%	-7.4	-1.8	-7.7	2.7
CCC(=O)OCC(=O)c1cc(C)n(-c2ccc(Br)cc2)c1C	5.5	3.6	x	2.9	3.8	x	3.4
COc1cc(/C=N/NC(=O)c2ccccc2)ccc1OS(=O)(=O)c1ccccc1	8.9	-3.0	16.0%	33.5	0.7	-5.1	2.6
COc1ccc(NC(=O)CSc2nnc3ccc(-c4ccncc4)nn23)cc1	-6.9	0.0	-2.2%	-2.6	-0.8	-1.8	-0.7
CCOC(=O)c1sc2ncn(/N=C/N(C)C)c(=O)c2c1C	-0.5	4.8	-1.7%	2.1	0.0	-1.8	-1.6
COc1cc(CN2CCN(C(=O)c3cccc4ccccc34)CC2)cc(OC)c1OC	1.8	4.0	3.5%	-1.5	-5.6	-3.6	-3.6
C=CCn1c(=O)/c(=C/c2ccc(F)cc2)s/c1=C(\C#N)c1nnc2n1CCCCC2	-14.6	0.7	12.1%	-3.3	0.9	3.9	8.9
O=C(c1ccccc1F)N1CCN=C1SCc1cccnc1	-0.8	-0.3	-1.5%	4.3	0.7	99.8*	-2.2
COc1ccccc1OCC(=O)Nc1ccc(S(=O)(=O)N2CCCCCC2)cc1	-7.7	4.2	23.8%	18.8	-6.2	4.5	3.2
Cc1ccc(N2C(=O)c3ccc(C(=O)N4CCN(Cc5ccccc5)CC4)cc3C2=O)cc1	-1.3	-2.3	-1.2%	-8.7	-2.5	x	-6.8
CC1=CC(=O)N(c2ccc(C)cc2)C1c1ccc(Cl)cc1 (configuration not stated)	-3.1	3.9	0.6%	-25.6	0.4	-1.3	5.5
C=C(C)CNC(=S)N/N=C(\C)c1cccc(NC(C)=O)c1	5.4	3.6	x	5.0	x	x	-1.5
Cc1[nH]c2ccccc2c1/C=N/NC(=O)c1cccs1	-6.8	-5.0	3.8%	-11.8	-2.9	60.4	14.7
COc1cccc(Oc2ccc(C(F)(F)F)cc2NC(=O)c2cccc(F)c2)c1	5.9	0.7	1.3%	5.7	2.2	2.9	-0.8
COc1ccc(N2CCN(C(=O)C(=O)c3cn(CC(=O)N4CCOCC4)c4ccccc34)CC2)cc1	-10.0	1.9	-3.5%	-18.9	4.2	51.9	-3.5
CCN(CCO)c1cc(Cl)nc(SC)n1	-0.7	69.1*	0.8%	-6.4	1.9	-2.0	-3.2
Cc1c(-c2ccccc2)nc(N)c(C#N)c1-c1cccnc1	-0.5	-0.5	1.6%	-6.0	-1.1	-3.5	-0.3

Ten structures out of the list, sorted by heavy-atom count, falling:
SMILES	B2AR ag	RanGTP-Impb inh	Vif TR-FRET	Calb FLC	LANA-H2A inh	ALR H2O2 inh	HNF4A DNA FP
COc1ccc(N2CCN(C(=O)C(=O)c3cn(CC(=O)N4CCOCC4)c4ccccc34)CC2)cc1	-10.0	1.9	-3.5%	-18.9	4.2	51.9	-3.5
Cc1ccc(N2C(=O)c3ccc(C(=O)N4CCN(Cc5ccccc5)CC4)cc3C2=O)cc1	-1.3	-2.3	-1.2%	-8.7	-2.5	x	-6.8
COc1cc(CN2CCN(C(=O)c3cccc4ccccc34)CC2)cc(OC)c1OC	1.8	4.0	3.5%	-1.5	-5.6	-3.6	-3.6
C=CCn1c(=O)/c(=C/c2ccc(F)cc2)s/c1=C(\C#N)c1nnc2n1CCCCC2	-14.6	0.7	12.1%	-3.3	0.9	3.9	8.9
COc1cc(/C=N/NC(=O)c2ccccc2)ccc1OS(=O)(=O)c1ccccc1	8.9	-3.0	16.0%	33.5	0.7	-5.1	2.6
COc1ccc(NC(=O)CSc2nnc3ccc(-c4ccncc4)nn23)cc1	-6.9	0.0	-2.2%	-2.6	-0.8	-1.8	-0.7
Cc1c(-c2ccccc2)nc(N)c(C#N)c1-c1cccnc1	-0.5	-0.5	1.6%	-6.0	-1.1	-3.5	-0.3
CCOC(=O)c1sc2ncn(/N=C/N(C)C)c(=O)c2c1C	-0.5	4.8	-1.7%	2.1	0.0	-1.8	-1.6
Cc1[nH]c2ccccc2c1/C=N/NC(=O)c1cccs1	-6.8	-5.0	3.8%	-11.8	-2.9	60.4	14.7
CCN(CCO)c1cc(Cl)nc(SC)n1	-0.7	69.1*	0.8%	-6.4	1.9	-2.0	-3.2

(list continues)
SMILES	B2AR ag	RanGTP-Impb inh	Vif TR-FRET	Calb FLC	LANA-H2A inh	ALR H2O2 inh	HNF4A DNA FP
CCN(CC)S(=O)(=O)c1cccc(C(=O)NC(C(=O)Nc2nnc(C)s2)C(C)C)c1 (configuration not stated)	-4.8	5.1	-2.4%	1.1	4.1	-9.8	1.9
CCN(Cc1ccc(Cl)s1)C(=O)c1cccc(OCc2c(C)noc2C)c1	-2.9	x	x	x	2.6	-3.5	-0.5
N=C(N1CCCc2ccccc21)N1CCCc2ccccc21	7.3	x	-10.1%	x	x	x	2.8
O=[N+]([O-])c1cccnc1N1CCN(c2ccccc2F)CC1	1.2	-3.2	1.5%	-12.9	-5.9	-2.3	5.1
COc1ccc(OC)c2c(N)c(C#N)c(C(F)(F)C(F)(F)F)nc12	-4.6	2.3	-2.0%	-4.7	-4.6	-19.4	-0.4
CNc1nc(N)nc(-c2cc(Cl)ccc2OC)n1	-4.6	3.9	-8.3%	-2.8	-0.8	2.3	3.3
O=C(/C=C/c1ccc2c(c1)OCO2)NCCSCc1cccc(Cl)c1	44.2*	3.8	-8.6%	-55.7	-6.0	-12.1	-2.9
COc1cccc(CNS(=O)(=O)c2csc(C(N)=O)c2)c1	0.1	0.6	-4.5%	10.8	-3.1	-11.7	0.1
COC(CN(C(=O)CCl)C(C(=O)NC1CCCCC1)c1ccc(C)cc1)OC (configuration not stated)	-3.9	7.9	2.1%	-5.6	4.1	97.0*	3.3
CC(C)(C)c1cc(NC(=O)CSc2nncs2)n(-c2ccccc2)n1	-9.7	u	x	11.0	0.1	-4.4	2.3
COc1cccc(CN2CCN(C(=O)c3ccc(-c4ccccc4)cc3)CC2)c1OC	3.5	1.1	-5.0%	-6.5	1.3	x	-0.3
O=[N+]([O-])c1ccc(N/N=C/c2cccc(O)c2O)c(S(=O)(=O)N2CCOCC2)c1	10.9	-3.4	u	-0.7	-0.1	-30.6	-0.8

Compound profiles, as listed above:
Profile of N=C(N1CCCc2ccccc21)N1CCCc2ccccc21 = B2AR ag = 7.3; RanGTP-Impb inh = x; Vif TR-FRET = -10.1%; Calb FLC = x; LANA-H2A inh = x; ALR H2O2 inh = x; HNF4A DNA FP = 2.8
Profile of COc1ccc(OC)c2c(N)c(C#N)c(C(F)(F)C(F)(F)F)nc12 = B2AR ag = -4.6; RanGTP-Impb inh = 2.3; Vif TR-FRET = -2.0%; Calb FLC = -4.7; LANA-H2A inh = -4.6; ALR H2O2 inh = -19.4; HNF4A DNA FP = -0.4
